Screening data (PubChem BioAssay)
D2 agonist = agonists of human D2 dopamine receptor (beta-arrestin); DiscoveRx PathHunter D2 beta-arrestin, luminescence, 90 min; 100% = 57 uM dopamine signal; 360,000 tested, 0.084% active; activation, % (no concentration beside the values); P14416; AID 624465; in the data active = activation above about 40%; inconclusive = about 15% to 40%; inactive = below about 15%; also: compound concentration not given in the record; the text of the record calls up to 30% inactive
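DiscoveRx PathHunter D2 beta-arrestin cells (2,100/well) attached overnight, then compound-stimulated 90 min at 37 C in HBSS/10 mM HEPES/0.1% Tween-20 buffer; beta-galactosidase complementation read by luminescence after 1 h at ambient temperature. Dopamine 57 uM final (EC100) as control.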
CtBP-E1A inh = CtBP/E1A binding inhibition. AlphaScreen GST-E1A/His-CtBP binding, 1536-well; stronger effect = lower value; control for the full effect not named in the record. activity change, % (concentration not given with the values). 340,000 tested, 0.49% active. AID 651724; in the data active means activity change below about -65%; inconclusive means about -30% to -65%; inactive means above about -30%; also: % is scaled to controls: 0 for no effect and ±100 for the full control effect
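In 5 uL wells, 23 nL compound meets equimolar GST-E1A and His-CtBP (5X stock 125 nM each) for 2 h, 37 °C. Beads (5X, 50 ug/mL) then 1 h, 37 °C, dark.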
gsp ag = agonists of gsp mutant (McCune-Albright syndrome) | Potency, µM (series often up to 76.9 µM), inactives show at the highest dose activation (cAMP increase), most hits filed as activators | gsp mutant cells, cAMP HTRF, 30 min; control for the full effect not named in the record | 340,000 tested, 0.13% active; active = well fitted activation curve with a large enough effect; inconclusive = small, poorly fitted or top-dose-only effect, or another doubt; inactive = no such curve, though single readings can be large or run the other way; cell line not stated here;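 also: phosphodiesterase inhibitor Ro 20-1724 added with compounds to block cAMP breakdown; potency is read from the fitted curve at half-maximal effect; nearly all actives have a fitted effect of over 60% in size; about a fifth of the inactives were tested at one dose only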
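Cells in DMEM/10% FBS with G418 were pretreated with compounds in DMSO plus […] (300 uM stock) for 30 min at 37C. cAMP was measured by HTRF (cAMP-d2 plus anti-cAMP antibody-K) after 30 min at room temperature.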
Six1-Eya2 inh = inhibitors of human Six1/Eya2 interaction | Q15475+O00167 | activity change, % (no concentration beside the values) | AlphaScreen GST-Six1/His-Eya2 binding, biochemical; stronger effect = lower value; control for the full effect not named in the record | 360,000 tested, 0.56% active; in the data active = activity change below about -65%; inconclusive = about -30% to -65%; inactive = above about -30%; also: % is scaled to controls: 0 for no effect and ±100 for the full control effect; compound concentration not given in the record
Target sequence (O00167 whole entry, looked up): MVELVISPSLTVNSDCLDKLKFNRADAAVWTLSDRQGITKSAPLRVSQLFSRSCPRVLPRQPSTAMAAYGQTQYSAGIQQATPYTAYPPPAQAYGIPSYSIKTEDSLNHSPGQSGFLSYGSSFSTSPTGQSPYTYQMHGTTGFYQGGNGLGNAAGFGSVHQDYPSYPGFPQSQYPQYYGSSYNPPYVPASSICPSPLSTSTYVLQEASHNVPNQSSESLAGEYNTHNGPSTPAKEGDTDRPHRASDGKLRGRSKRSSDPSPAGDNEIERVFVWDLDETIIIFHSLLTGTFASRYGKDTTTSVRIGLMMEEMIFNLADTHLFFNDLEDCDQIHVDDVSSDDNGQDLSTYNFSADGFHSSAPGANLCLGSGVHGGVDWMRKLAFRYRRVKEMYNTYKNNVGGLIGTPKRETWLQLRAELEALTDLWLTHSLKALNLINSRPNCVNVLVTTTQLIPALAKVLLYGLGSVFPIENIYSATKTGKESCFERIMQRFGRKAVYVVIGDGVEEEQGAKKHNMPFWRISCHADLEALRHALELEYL
Target sequence (Q15475 whole entry, looked up): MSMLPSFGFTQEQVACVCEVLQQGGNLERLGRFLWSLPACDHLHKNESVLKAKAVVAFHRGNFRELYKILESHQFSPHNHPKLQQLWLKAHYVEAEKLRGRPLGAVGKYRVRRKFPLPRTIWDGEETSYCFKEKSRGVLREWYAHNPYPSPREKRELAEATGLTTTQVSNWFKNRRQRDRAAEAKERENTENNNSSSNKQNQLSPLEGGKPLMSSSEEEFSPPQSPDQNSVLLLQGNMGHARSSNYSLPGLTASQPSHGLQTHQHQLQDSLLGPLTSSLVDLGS
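Compounds are tested against tagged Six1 and Eya2 proteins bridged by glutathione donor and nickel acceptor beads; after a one-hour incubation at 37 °C without light, AlphaScreen emission is recorded.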
gsp antag = gsp mutant antagonism | gsp-mutant cells, cAMP HTRF, 30 min; control for the full effect not named in the record | Potency, µM (top dose mostly 76.9 µM), for the others: at the highest dose activity change, negative = inhibition, actives largely listed as inhibitors | 340,000 tested, 0.4% active; active = falling curve of any shape with a large fitted effect; inconclusive = falling curve, mostly with a smaller effect; inactive = flat or rising curve; cell line not stated here;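 also: intracellular cAMP measured with PDE inhibitor Ro 20-1724 present during compound exposure; potency is read from the fitted curve at half-maximal effect; % is scaled to controls: 0 for no effect and ±100 for the full control effect; nearly all actives have a fitted effect of over 65% in size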
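Cells in G418 medium, seeded 16-24 h, 37C; buffer exchange to DPBS + 1 mM CaCl2, 0.5 mM MgCl2, 0.05% BSA; cpds in DMSO + […] (300 uM stock), 30 min 37C; HTRF cAMP detection.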
D2 PAM = potentiates the human D2 dopamine receptor allosterically. DiscoveRx D2 beta-arrestin cells, luminescence, 90 min; 100% = 57 uM dopamine signal. potentiation, % (test concentration not listed). 360,000 tested, 0.23% active; active = potentiation of 50% or more; inconclusive = 30% to 50%; inactive = 30% or less;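 also: compound concentration not given in the record; tested on top of an EC20 dose of dopamine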
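D2 cells co-treated with compound plus 50 nM dopamine (EC20) for 90 min at 37 deg C to detect potentiation. Beta-arrestin recruitment was read as enzyme-fragment luminescence after 1 h at ambient temperature. Full response was set by 57 uM dopamine.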
An asterisk follows results filed as active; ? = inconclusive; / = no result given; & = joins results of further samples; [ ] = dose if it differs, or a comment.

SMILES,D2 agonist,CtBP-E1A inh,gsp ag,Six1-Eya2 inh,gsp antag,D2 PAM
COc1ccc(NC(=O)CS(=O)c2ccc(Cl)c(Cl)c2)cc1 (stereo not given),-11,11,22%,3,-5%,-7
CCN(CC)CCNC(=O)c1ccc(NC(=O)c2ccc(S(=O)(=O)N(C)c3ccccc3OC)cc2)cc1,0.0,1,7%,1,-2%,-24
Cc1cccc(OCC(O)CN2CCNCC2)c1 (stereo not given),4.7,8,-50%[inhibitor],0,5%,-1
CC1(C)CC(=O)c2sc(NS(=O)(=O)c3ccccc3)nc2C1,0.2,6,13%[15.4 µM],10,7%,-10
Cc1nn(C(=O)c2cc([N+](=O)[O-])ccc2Cl)c(C)c1Br,-0.4,0,-10%,-12,3%,6
O=C(COC(=O)/C=C/c1ccc(S(=O)(=O)N2CCc3ccccc32)cc1)NC1CCS(=O)(=O)C1 (stereo not given),-0.3,1,15%[15.4 µM],1,-9%,0
O=C(CCOc1ccccc1)Nc1nnc(-c2ccc3c(c2)OCCO3)o1,-4.2,1,-17%[15.4 µM],?,-8%,1
CC1CCCN(C(=O)Cc2cn(Cc3cccc(Cl)c3)c3ccccc23)C1 (stereo not given),-4.6,-4,-34%[inhibitor],-12,-24%,-9

Some entries already given, reduced to D2 PAM, gsp antag and CtBP-E1A inh.
SMILES	D2 PAM	gsp antag	CtBP-E1A inh
O=C(COC(=O)/C=C/c1ccc(S(=O)(=O)N2CCc3ccccc32)cc1)NC1CCS(=O)(=O)C1 (stereo not given)	0	-9%	1
O=C(CCOc1ccccc1)Nc1nnc(-c2ccc3c(c2)OCCO3)o1	1	-8%	1
CC1CCCN(C(=O)Cc2cn(Cc3cccc(Cl)c3)c3ccccc23)C1 (stereo not given)	-9	-24%	-4

(cont.)
SMILES,D2 agonist,CtBP-E1A inh,gsp ag,Six1-Eya2 inh,gsp antag,D2 PAM
CNS(=O)(=O)c1cccc(C(=O)OCC(=O)Nc2ccc(Cl)cn2)c1,1.5,1,9%[15.4 µM],5,-11%,-6
CC(=O)Nc1cccc(/C(C)=N/NC(=O)c2ccc(O)cc2)c1,3.8,-1,-45%[inhibitor],-1,8%,-3
CCOC(=O)C1=C(C)NC(C)=C(C(=O)OCC)C1c1ccccn1,-2.3&-1.5,-2&1,?,6&4,2%,-7&-17
CCOC(=O)Cn1nc(-c2ccccc2)ccc1=O,-1.8,46,3%,18,5%,-9
COc1ccccc1/C=N/NC(=O)c1c(-c2ccccc2)noc1C,-3.0,1,4%,1,-5%,4
Cc1ccc(-n2nnnc2-c2ccccc2Br)cc1,-0.6,6,2%[15.4 µM],3,-1%,-4
CCOC(=O)C1=C(C)OC(N)=C(C#N)C1c1cccc(C)c1 (stereo not given),-5.4,10,8%[15.4 µM],-1,-1%,9
CSc1ncccc1C(=O)OCC(=O)N(C)Cc1ccc(C)cc1,-1.7,1,-44%[inhibitor],3,/,-2

Next compounds.
SMILES,D2 agonist,CtBP-E1A inh,gsp ag,Six1-Eya2 inh,gsp antag,D2 PAM
CN1CCN(c2ccc(CNC(=O)C3Cc4c(-c5ccccc5)ccnc4O3)cc2)CC1 (stereo not given),-5.1,-9,/,2,/,-22
O=C(Nc1ccccc1)OCc1cncs1,-1.9,14,-17%,0,9%,2
COC(c1ccccc1)c1nnc(CCC(=O)NC2C3CC4CC(C3)CC2C4)o1 (stereo not given),0.2,/,-99%[inhibitor],-1,-1%,-2
CCOC(=O)c1c(NC(=O)CSc2ncn[nH]2)sc(C(C)=O)c1C,2.1,-10,16%,-9,?,10
O=C(NCCSc1c[nH]c2ccccc12)c1ccc2c(c1)OCO2,-2.6,-16,-7%,-8,1%,-3
N/C(=N\OC(=O)CCC1CCCC1)c1ccncc1,-1.8,-13,-6%[15.4 µM],5,12%,-1
O=C(NCCC1=CCCCC1)C(=O)NCC(c1ccco1)N1CCN(c2ccc(F)cc2)CC1 (stereo not given),-2.5,-3,-5%,4,9%,-13
CCCSc1nc(NCc2ccco2)c2c3c(sc2n1)COC(C)(CC)C3 (stereo not given),-1.3,1,-31%[inhibitor],0,-22%,-10

(cont.)
SMILES,D2 agonist,CtBP-E1A inh,gsp ag,Six1-Eya2 inh,gsp antag,D2 PAM
Cc1cc(=O)oc(C)c1C(=O)Nc1ccc2ncccc2c1,1.9,0,?,12,16%,25
O=c1c2cc(Br)ccc2[nH]c(=S)n1Cc1ccccn1,-19,4,?,-4,-20%,-30
O=C(OCCO)c1cc(Cl)c(C(=O)OCCO)cc1Cl,-1.2,1,0%,-2,-6%,11
CN(CC(=O)Nc1c(Cl)cccc1Cl)C(=O)CCNS(=O)(=O)c1ccccc1C(F)(F)F,2.4,-4,10%,9,5%,-6
CC(=O)Oc1cccc(N2C(=O)c3ccc(C(=O)Nc4c[nH]c(=O)[nH]c4=O)cc3C2=O)c1,8.2,4,1%,6,3%,3
COc1ccc(CC(=O)Nc2nnc(C(C)C)s2)cc1,-23,9,16%[15.4 µM],6,-3%,7
CC(NC(=O)/C(=C/c1cccc([N+](=O)[O-])c1)NC(=O)c1ccco1)C(=O)O (stereo not given),-8.7,8,-8%,2,6%,-2
COC(=O)c1ccc(C2/C(=C(/O)c3ccc(OC)cc3)C(=O)C(=O)N2Cc2ccco2)cc1 (stereo not given),-1.9,9,?,-4,-8%,-17

Later entries.
SMILES,D2 agonist,CtBP-E1A inh,gsp ag,Six1-Eya2 inh,gsp antag,D2 PAM
CN(C)c1ccc(/C=N/NC(=O)CNC(=O)/C=C/c2ccco2)cc1,-5.1,8,-1%[15.4 µM],-2,/,-13
CCCSc1nc(N)nc2c1ncn2C1OC(CO)C(O)C1O (stereo not given),4.3,-10,?,-2,?,1
Cc1ccc(CN2C(=O)c3ccccc3Sc3ccc(C(=O)NCCN4CCOCC4)cc32)cc1,6.4,-18,26%,-1,-3%,-8
CCCCC(=O)Nc1ccc2c(c1)nc(CCN1CCN(c3ccccn3)CC1)n2C,14,4,4%,0,-1%,-5
Cc1ccc(S(=O)(=O)Cn2nnnc2CN2CCOCC2)cc1,-1.6,4,2%,2,2%,6
CCOC(=O)c1cnn(-c2cc(Oc3ccccc3)ncn2)c1N,2.0,-1,6%,9,8%,-8
CCOc1ccc(CCNC(=O)COC(=O)c2ccc(C)c(S(=O)(=O)N3CCOCC3)c2)cc1OCC,-1.0,-4,-31%[inhibitor],3,/,2
Cc1cccc(NC(=O)C2C(C(=O)O)C3C=CC2C32CC2)c1C (stereo not given),-4.8,-7,-22%,-4,4%,-2

Further compounds follow.
SMILES,D2 agonist,CtBP-E1A inh,gsp ag,Six1-Eya2 inh,gsp antag,D2 PAM
O=C(CSc1nnnn1C1CCCC1)Nc1cccc(NC(=O)c2ccco2)c1,0.1,11,-2%,-2,-4%,-1
CCCn1c(C(CO)Nc2nc(-c3cccc(Br)c3)cs2)nc2ccccc21 (stereo not given),-3.0,-6,0%,-12,-10%,-18
O=C(NC1CCCCC1)C(c1ccco1)N(C(=O)c1csnn1)c1cccc(Cl)c1 (stereo not given),-2.1,0,5%[15.4 µM],6,-41%,-4
O=C(Cn1c(NCCCO)nc2ccccc21)c1ccc(Br)cc1,-0.3,-8,11%,3,4%,-11
COc1ccc2nc(NC(=O)CSc3nc4cccnc4n3C)sc2c1,-3.9,-2,-34%[inhibitor],2,42%[activator],-4
Cc1ccc(-n2nc3c(c2NC(=O)c2cccs2)CSC3)cc1,-4.1,-5,15%,-6,-7%,-7
CC(C)(C)NC(=O)Cc1ccc(S(=O)(=O)N2CCCC2)s1,2.6,6,-21%,-2,3%,-4
CC(CN1CCCC1)OC(=O)COc1ccccc1 (stereo not given),2.5,-1,1%,5,8%,7

(more compounds)
SMILES,D2 agonist,CtBP-E1A inh,gsp ag,Six1-Eya2 inh,gsp antag,D2 PAM
C(=N\n1cnnc1)/c1ccc(OCc2ccccc2)cc1,1.8,5,-15%,1,-2%,7
CCCNC(=O)CCn1nc(-c2ccc(Cl)cc2)c2ccccc2c1=O,-7.7,-12,7%[15.4 µM],-2,-7%,-6
CC1(C)Cc2nc3oc4c(SCC(N)=O)ncnc4c3cc2CO1,1.5,-1,?,-5,-3%,3
O=C(COc1ccccc1)N1CCN(C(=O)c2cccc(F)c2)CC1,-1.3,-1,-1%,4,-1%,-10
Cc1sc2c(c1C)CN(Cc1ccncc1)CN2C(=O)c1ccco1,1.1,0,-39%[inhibitor],-1,-8%,-8
Cc1ccc(S(=O)(=O)N2CCOCC2)cc1C(=O)NCc1cccnc1,0.7,7,?,8,17%,3
COc1ccc(NC(=O)COC(=O)Cc2cccs2)cc1Cl,1.5,0,-7%,-2,/,3
CC(=O)Oc1ccc2occ(C(=O)c3ccccc3)c2c1,-1.7,-12,18%,14,0%,3

Next section.
SMILES,D2 agonist,CtBP-E1A inh,gsp ag,Six1-Eya2 inh,gsp antag,D2 PAM
COc1ccc(CSc2ncn[nH]2)cc1[N+](=O)[O-],-3.4,13,-2%,6,6%,-1
CCOC(=O)CSc1nnc(CNC(=O)c2ccco2)n1-c1ccc(F)cc1,-0.9,-2,-9%,4,2%,10
CCN(CC)C(=O)CSc1nc2cc3c(cc2c(=O)n1CCCC(=O)NCCc1ccc(OC)c(OC)c1)OCO3,-2.0,6,15%[15.4 µM],-20,-12%,3
COc1cc(C#Cc2c(-c3cncn3C)n(C)c3ccc(-c4ccc5[nH]ccc5c4)cc23)cc(OC)c1,-4.2,-11,-1%,-19,0%,-15
CCOc1ccc(-n2c(SCC(=O)Nc3cc(C(=O)O)ccc3Cl)nc3ccccc3c2=O)cc1,5.4,-15,5%[15.4 µM],-27,-21%,4
CCOc1ccc(N2CC(C(=O)N3CCCCC3)CC2=O)cc1 (stereo not given),-0.9,-2,2%[15.4 µM],-10,17%,-6
CCN(CC(=O)Nc1c(F)cccc1F)C(=O)CNC(=O)c1ccc2ccccc2c1,-1.5,4,-3%,-6,5%,-18
COCc1cc(=O)n2[nH]c(-c3ccc(C)cc3)cc2n1,1.9,7,-8%,1,-1%,-7

Further structures.
SMILES,D2 agonist,CtBP-E1A inh,gsp ag,Six1-Eya2 inh,gsp antag,D2 PAM
Cc1cccc(OCC(=O)N(Cc2ccco2)C2CCS(=O)(=O)C2)c1C (stereo not given),-1.5,0,4%,22,1%,1
O=C(NC(=S)N1CCN(C/C=C/c2ccccc2)CC1)c1c(F)cccc1F,-3.1,0,3%[15.4 µM],1,-9%,-7
Nc1ccc2c(c1)OCCOCCOCCOCCOCCO2,-3.0,-2,-26%,-2,?,0
CCc1nc(C)c(-c2ccccc2)c(=O)[nH]1,-1.1,3,3%,6,9%,-3
O=C(/C=C/c1ccc(Cl)c(Cl)c1)NC1=NCCS1,-20,0,-8%[15.4 µM],-4,-6%,-8
O=C(NNC(=O)C1CCN(S(=O)(=O)c2ccc(Cl)cc2)CC1)c1ccc(S(=O)(=O)N2CCCCC2)cc1,0.5,-2,32%,1,9%,7
Cc1nnc(N2CCN(c3ccccc3)CC2)[nH]c1=O,-2.2,6,-48%[inhibitor],-1,-13%,-7
